Assay outcomes: PubChem BioAssay, several laboratories
UUG fidelity: alters start codon recognition fidelity in yeast | S. cerevisiae UUG-firefly luciferase reporter, luminescence/redox ratio | activity score, % at 18.7 µM | 350,000 tested, 0.13% active | AID 602363;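 active means replicate mean at a twofold rise or more, about +100% in these data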;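 further: firefly luciferase made from a UUG start codon reports start codon fidelity; reporter light over untreated wells divided by growth signal over untreated wells; some hits fall short of that in this replicate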
Env fusion inh: HIV envelope-mediated fusion inhibition | AID 651610 | 360,000 tested, 1.1% active | HeLa-JRFL Env/CEM21 cell fusion, luciferase | inhibition, % at 12.3 µM;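 active means mean replicate inhibition score of at least 50 and every replicate individually at or above 50; inconclusive means only one of the two criteria met; inactive means mean below 50 and not all replicates reaching 50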;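 further: 0% = plate neutral controls and 100% = maraviroc near 300 nM; one replicate is shown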
MT1-MMP act inh: inhibitors of human MT1-MMP activation; P50281; HT1080 RFP-PRO-GFP cells, GFP/RFP ratio fluorescence, overnight; percent of plate control window, DMSO zero; GFP/RFP ratio change, % at 20 µM; 360,000 tested, 0.061% active; AID 651647;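 active means GFP/RFP ratio change of at least 30% with cell ATP level not reduced by more than half and red fluorescence within 50% of control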; further: strong numbers were not always called active
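Test system: HT1080 cells expressing an RFP-PRO-GFP fluorescent reporter construct / Compound dosing: single-point 20 µM compound, 1% DMSO / Schedule: cells overnight before dosing, compound overnight, 37 °C, 5% CO2 / Evaluation: GFP/RFP fluorescence ratio / Control set: DMSO and RFP-L50D-GFP cell wells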
CSC inhib: cancer stem cell inhibition; inhibition, % at 7.5 µM; 300,000 tested, 1.1% active; cancer stem cell-like cells viability, luminescence;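 active means mean at 75% or more and at least half the replicates too; inconclusive means mean and replicates disagree; tested in HMLE shEcad cells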;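 further: 0% = median of negative and 100% = median of positive control wells; the first replicate is given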
PABP polyA inh: PABP-poly(A) binding inhibition. PABP-poly(A) RNA binding, fluorescence polarization. inhibition, % at 35 µM. 290,000 tested, 1% active;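 active means 50% or more with normal probe brightness, or confirmed in later tests; inconclusive means above 50% with abnormal brightness, or retests that disagree; inactive means below 50% or failed in later tests; about a fifth of its hits are not listed in these tables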;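 further: calls also rest on retests at 20 µM and on dose response follow-up; controls were probe without protein and protein plus probe with vehicle; some compounds called inactive have numbers as strong as hits; many hits fall short of the cut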
eIF4H FP inh: inhibitors of RNA binding by human eIF4H; 290,000 tested, 0.94% active; eIF4H fluorescence polarization binding assay; inhibition, % at 35 µM; AID 2012;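 active means 50% or more with normal probe brightness, or confirmed in later tests; inconclusive means above 50% with abnormal brightness, or retests that disagree; inactive means below 50% or failed in later tests; about a fifth of its hits are not listed in these tables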;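 further: calls also rest on retests at 20 µM and on dose response follow-up; 0% = protein and probe with vehicle and 100% = probe without protein; strong numbers were not always called active; many hits fall short of the cut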
Rce1 inh: inhibitors of yeast Ras-converting enzyme. Q03530. yeast membranes, quenched prenylated peptide cleavage fluorescence. calls only. 290,000 tested, 0.27% active. AID 2563;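 active means fall in fluorescence gain of 50% or more versus controls, with final raw signal at or below 3038400; inconclusive means same 50% fall but final raw signal above 3038400; inactive means fall in fluorescence gain under 50%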;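 further: plate controls were neutral control wells for no effect and wells lacking membranes for full effect; tested at 10 µM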
Target sequence (Q03530 whole entry, looked up): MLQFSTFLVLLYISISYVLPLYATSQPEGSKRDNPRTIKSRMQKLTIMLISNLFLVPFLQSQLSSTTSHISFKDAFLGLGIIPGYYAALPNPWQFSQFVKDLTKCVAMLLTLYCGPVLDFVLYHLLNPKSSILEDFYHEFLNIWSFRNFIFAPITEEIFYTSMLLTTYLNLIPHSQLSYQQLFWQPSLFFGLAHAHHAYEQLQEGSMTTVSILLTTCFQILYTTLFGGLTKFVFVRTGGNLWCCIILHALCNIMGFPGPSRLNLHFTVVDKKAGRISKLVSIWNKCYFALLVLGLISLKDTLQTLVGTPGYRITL
MT1-MMP act inh RFP: recorded beside MT1-MMP act inh, whose call it bears; RFP signal change, %; measured here: RFP expression control read;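 0 = vehicle wells; hits needed this value within 50% of zero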
* hit, by the source's call; i = inactive; ? = inconclusive; . = not tested or not shown. Compounds as they come; any-hit rate near 2.9%.

SMILES	UUG fidelity	Env fusion inh	MT1-MMP act inh	MT1-MMP act inh RFP	CSC inhib	PABP polyA inh	eIF4H FP inh	Rce1 inh
CN(C)S(=O)(=O)c1ccc(Cl)c(C(=O)NC2CCCCCCC2)c1	-16	6	-3	-8	.	12	-7	i
Cc1ccc(C(=O)Nc2cc3[nH]c(=O)oc3cc2C)cc1	-14	45	6	0	-1	-2	-6	i
Cc1cc(C=C2C(=O)c3ccccc3C2=O)c(C)n1C	-14	-41	8	-3	-10	-3	42	i
Cc1nc(CNS(=O)(=O)c2ccccc2F)cs1	-18	-85	1	4	-6	-6	-4	i
Cc1cc(C)nc(N/N=C/C2=C(N3CCOCC3)C(=C\c3ccc(Cl)cc3)/CC2)n1	.	-26	-26	6	8	5	9	i
Cc1ccc(-c2nc3ccccc3[nH]2)cc1NC(=O)c1sc2cc(Cl)ccc2c1Cl	.	-28	8	3	5	-4	-4	i
OC(c1cccc(CN2CCCCC2)c1)c1ncc(-c2cccc(C(F)(F)F)c2)[nH]1 (stereo not given)	-18	-10	3	4	.	.	.	.
CC(=O)c1c(C)[nH]c(C(=O)N(C)CC(=O)Nc2ccc(Cl)c(C(F)(F)F)c2)c1C	2	-21	8	-4	-26	3	-5	i
O=C(NNc1ccccc1[N+](=O)[O-])Nc1cccc(Cl)c1	.	15	4	3	2	4	4	i
CC(=O)Nc1ccc(NS(=O)(=O)c2ccc3[nH]c(=O)[nH]c3c2)cc1	-23	-11	4	2	0	-2	1	i
CCOc1ccccc1OCCCC(=O)Nc1cccc(S(=O)(=O)N2CCOCC2)c1	7	2	1	-1	.	.	.	.
CCOC(=O)c1noc(C)c1C(=O)Nc1cccc(F)c1	-4	.	0	1	5	1	-10	i
CC(=O)c1ccc(-c2ccc(C(=O)NC3CC(C)(C)NC(C)(C)C3)o2)cc1	0	1	-3	-3	-2	.	.	?
COCCN1C(=O)c2ccc(C(=O)NCc3ccco3)cc2C1=O	-11	8	-3	-1	-11	5	-8	i
CC1(C)CN=C(c2ccccc2)NC1	-13	-78	1	3	.	.	.	.
CCC(Sc1nc(-c2ccccc2)c(C#N)c(=O)[nH]1)C(=O)Nc1nnc(C)s1 (stereo not given)	-13	-65	7	4	5	10	-2	i
O=C(CN1CCOCC1)N/N=C/C=C/c1ccccc1	.	6	-1	3	-21	6	0	i
COc1ccc(/C=N\NC(=O)c2sccc2C)cc1Cn1nc(C)cc1C	-16	5	14	4	9	-7	2	.
O=C(NCc1ccco1)c1cccc(S(=O)(=O)N2CCOCC2)c1	14	29	15	5	0	-9	-1	i
O=C(O)c1cccc(N=NN2CCOCC2)c1	.	-19	2	1	-2	4	5	i
Nc1nc(=S)[nH]c2c1C1(CCCC1)Cc1ccccc1-2	-6	26	0	-4	-8	-9	2	i
CCC1(CC)NC(=O)N(CC(=O)OCC(=O)NC(=O)c2ccccc2)C1=O	-8	11	-3	0	-11	2	0	i
COC(=O)c1ccc(Cn2nc(C)c(Br)c2C)cc1	-17	.	-2	-2	27	-1	1	i
CCOc1ccccc1N(CC(=O)N(C)Cc1ccccc1)S(=O)(=O)c1ccccc1	-8	9	-2	-2	-6	8	-3	i

Part of the list above, showing only eIF4H FP inh and CSC inhib.
SMILES | eIF4H FP inh | CSC inhib
CC(=O)c1ccc(-c2ccc(C(=O)NC3CC(C)(C)NC(C)(C)C3)o2)cc1 | . | -2
COCCN1C(=O)c2ccc(C(=O)NCc3ccco3)cc2C1=O | -8 | -11

Following part
SMILES	UUG fidelity	Env fusion inh	MT1-MMP act inh	MT1-MMP act inh RFP	CSC inhib	PABP polyA inh	eIF4H FP inh	Rce1 inh
COc1ccccc1N(C)S(=O)(=O)c1ccc(C(=O)OCC(=O)N2CCCCCC2)cc1	.	21	1	0	2	7	-4	i
CN(C)/C=C(\C=O)c1c(Cl)cccc1Cl	.	30	2	5	-4	5	4	i
Cc1cc(C(=O)N2CCC2(C)C(=O)NCC(C)(C)C)nn1C (stereo not given)	-17	3	5	1	.	.	.	.
CC(=O)c1cccc(NC(=O)COC(=O)Cc2ccc(Cl)cc2)c1	5	-6	1	5	.	.	.	.
O=C1N/C(=N/N=C/c2ccccc2)SC1(c1ccccc1)c1ccccc1	-7	.	6	3	-5	-5	-4	i
O=C1CCc2cc(S(=O)(=O)NC(C(=O)NCc3cccnc3)c3ccccc3)ccc2N1 (stereo not given)	5	-50	-3	3	.	1	2	.
CCN(CC)S(=O)(=O)c1ccc(OC)c(NC(=O)c2ccc3c(c2)OCO3)c1	.	18	1	2	.	6	-11	.
Cc1nc2ccccc2c(=O)n1NC(=O)C1CC1C (stereo not given)	.	-3	-4	0	-12	-5	-4	i
O=C1CCc2cc(S(=O)(=O)NC(Cc3ccccc3)C(=O)N3CCN(c4ccccn4)CC3)ccc2N1 (stereo not given)	.	-5	3	-1	.	2	-3	i
COc1ccc2c(c1OC)C(=O)OC2N1C(=O)CC[C@H]1C(=O)Nc1ccc(F)cc1F (stereo not given in full)	-17	.	5	8	-14	10	-6	i
O=C(NCCc1ccccc1)Nc1ccc2c(c1)OCO2	.	-60	1	2	.	-14	3	i
Cc1cc(C)n(-c2cc(C(C)(C)C)nc3c(-c4ccccc4)cnn23)n1	.	-105	-3	-6	29	8	-3	i

Structural class, the compounds so far containing a tert-butyl group (2)
SMILES	UUG fidelity	Env fusion inh	MT1-MMP act inh	MT1-MMP act inh RFP	CSC inhib	PABP polyA inh	eIF4H FP inh	Rce1 inh
Cc1cc(C(=O)N2CCC2(C)C(=O)NCC(C)(C)C)nn1C (stereo not given)	-17	3	5	1	.	.	.	.
Cc1cc(C)n(-c2cc(C(C)(C)C)nc3c(-c4ccccc4)cnn23)n1	.	-105	-3	-6	29	8	-3	i

Additional entries:
SMILES	UUG fidelity	Env fusion inh	MT1-MMP act inh	MT1-MMP act inh RFP	CSC inhib	PABP polyA inh	eIF4H FP inh	Rce1 inh
O=C(OCCOc1ccc(Br)cc1)c1ccc(Cl)nc1	.	10	-4	-2	-10	7	1	i
CCC1(c2ccc(F)cc2)NC(=O)N(CC(=O)Nc2ccc(C)c(S(=O)(=O)N3CCOCC3)c2)C1=O (stereo not given)	.	-8	6	-2	-1	5	3	i
Cc1cc(-c2ccccc2)nc(N(C)NC(=O)c2c(F)cccc2F)c1S(C)(=O)=O	-12	.	-5	-7	-13	-8	8	i
CCC(NC(=O)COc1cc2c(c3oc(=O)c(C)c(C)c13)CCC(C)(C)O2)C(=O)O (stereo not given)	2	8	5	1	-4	1	1	?
O=S(=O)(c1ccc(Br)s1)N1CCCCC1	-10	6	1	5	-2	-6	-5	i
Cc1cc[n+](Cc2ccccc2)c(N)c1	-14	3	20	-2	-7	.	.	i
O=[N+]([O-])c1ccc2c(c1)nc1n2CCN(c2ccccc2)C1	.	-5	7	0	-5	3	5	i
CC(C)(C)NS(=O)(=O)c1ccc(Oc2ncc(C(F)(F)F)cc2Cl)cc1	.	5	-1	-12	8	-2	-6	i
Cc1c(C(=O)NCC(c2ccco2)N2CCCC2)oc2ccc(Cl)cc12 (stereo not given)	-23	2	-1	-1	1	0	-1	i
CC(C)CN(C(=O)CN1CCN(c2ccccc2F)CC1)c1c(N)n(CC(C)C)c(=O)[nH]c1=O	-18	10	-1	3	7	7	8	i
CCn1cc(C(=O)N2CCCCC2)c(=O)c2cc(S(=O)(=O)N3CCC(C)CC3)ccc21	17	-42	2	1	15	12	22	i
C/C(=N\NC(=O)CC1N=C(Cc2ccccc2)NNC1=O)c1ccc(Cl)cc1Cl (stereo not given)	5	.	-3	-1	47	-4	-6	i
Cc1nc2nc(-c3ccco3)[nH]n2c(=O)c1C	-1	-31	-6	1	-6	6	-8	i
Cn1cnnc1SCC(=O)NN1C(=O)NC(C)(c2ccccc2)C1=O (stereo not given)	.	-3	-2	1	-5	8	-12	.
O=C(CSc1nc2ccccc2[nH]1)N=Nc1c(O)[nH]c2ccccc12	-18	-8	-3	-7	0	-20	2	i
CCn1c2ccccc2c2nnc(SCC(=O)NC(CC(C)C)C(=O)OC)nc21 (stereo not given)	-11	18	-5	-9	-4	1	-1	i
Cc1cccc(NC(=O)NNC(=O)c2ccc3ccccc3c2O)c1	-8	-35	2	3	-2	-6	14	i
COc1ccc(NC(=S)NCCSc2ccc(Cl)cc2)c(OC)c1	-6	-42	0	-8	15	8	2	i
O=C(c1ccc(-c2cccc(C(F)(F)F)c2)o1)N1CCCC(C(F)(F)F)C1 (stereo not given)	-4	-15	1	2	11	.	.	i
CC/C(=N/Nc1ccccc1Cl)c1cnnc(-c2ccccc2)n1	6	-44	-2	-9	8	4	4	i
Cc1cc(C)nc(NC(=O)c2c(-c3ccccc3Cl)noc2C)c1	.	8	3	-10	18	4	1	i
CCOc1ccccc1NC(=O)c1ccc2c(=O)n3c(nc2c1)CCCCC3	-17	-2	7	2	19	2	-19	i
O=C1c2ccccc2NC(c2cccc(F)c2)N1Cc1ccco1 (stereo not given)	-9	.	7	-3	16	2	33	i
COc1cccc2sc3ccc(NCCC4CCCN4C)cc3c(=O)c12 (stereo not given)	7	-116	-53	-3	2	60*	79*	i
CCc1nn(CC(=O)NCCCN(CC)Cc2ccccc2)c(=O)c2cc3sccc3n12	-7	-36	-1	3	-12	0	-2	i
Cc1ccc(C(C(=O)NC(C)(C)C)N(CC2CCCO2)C(=O)c2csnn2)cc1 (stereo not given)	.	20	-4	-1	1	-6	-9	i
O=C(Cc1ccccc1)N1CCCC(c2nc(-c3cccs3)no2)C1 (stereo not given)	.	.	4	1	-3	10	0	i
NC(=O)CC(NC(=O)c1ccccc1)c1ccc(NCCc2ccc(F)cc2)c([N+](=O)[O-])c1 (stereo not given)	-13	21	9	-8	-1	-12	9	i
CCC(=O)Nc1ccc(C(=O)NNC(=O)C(c2ccccc2)c2ccccc2)cc1	-4	-11	-2	0	-11	0	-6	i
O=C(Nc1oc2ccccc2c(=O)c1-c1ccc2c(c1)OCO2)c1ccco1	-7	3	-4	3	.	.	.	.
CCC(C)NC(=O)Cn1nc(C(F)(F)F)c2c1CCC2 (stereo not given)	-12	11	-3	1	-12	-3	-6	i
S=C(Nc1ccccc1)Nc1cc(Cl)ccc1Oc1ccccc1	-22	-8	-3	3	33	14	1	i
O=C1C2C3C=CC(C3)C2C(=O)N1c1ccc(Cc2ccncc2)cc1 (stereo not given)	-12	.	5	-15	-1	-4	-2	i
CCOC(=O)N1CCC(N2Cc3cccc(C(=O)Nc4ccc(CC)cc4)c3C2=O)CC1	.	-71	-33	-36	.	-9	-16	i
Cc1nn(C)c(C)c1N=Cc1c(O)ccc2ccccc12	-7	.	5	2	-1	-4	-10	i
CCOc1c(Cl)cc(/C=C/C(=O)N(CC)CC(=O)Nc2ccc(NC(C)=O)cc2)cc1OC	12	-16	0	-3	.	.	.	i
CC(C)c1ccc(/C=N/n2c(COc3ccccc3)n[nH]c2=S)cc1	-25	-2	4	-4	43	4	5	i
O=C(c1ccc(F)cc1)N(Cc1cccs1)C1CCS(=O)(=O)C1 (stereo not given)	2	-7	-3	-1	-9	-4	-2	i
O=C(C1CC1)N1CCc2cc(S(=O)(=O)N3CCN(c4ccccc4)CC3)ccc21	-7	-4	1	-8	-5	0	-10	i
CC12CCC(=O)C=C1CCC1C2CCC2(C)C1CC1C3C(=O)N(Cc4ccccc4)C(=O)C3CC(=O)C12 (stereo not given)	-2	61*	0	-1	.	.	.	.
C=C(Cl)COC(=O)[C@H]1C2C=CC(C2)C1C(=O)O (stereo not given in full)	-9	-43	-6	2	-2	6	11	i
CC1CCCC(C)N1C(=O)C1CCCCC1 (stereo not given)	17	7	1	7	-6	1	2	i
CN(C)C(=O)CSc1n[nH]c(=O)[nH]c1=O	.	-8	12	9	-14	1	-8	i
